Screens (PubChem BioAssay)
B2AR ag = agonists of human beta-2 adrenergic receptor inducing internalization; Am2.2-beta2AR cells, FAP receptor internalization, flow cytometry; reference of the scale not given here; response, % (concentration not given with the values); actives 0.43% (n = 340,000);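 active = response above a set limit, near 3 SD of response in nonfluorescent compounds, cut at about 42% in these data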;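 also: stock transfer was 100 nL into about 11 µL; a reference agonist was the positive control; negative values mostly stem from fluorescent compounds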
LANA-H2B inh = blocks KSHV LANA binding to histone H2A/H2B; actives 0.6% (n = 320,000); cell-free LANA-H2A/H2B peptide, fluorescence polarization; AID 2629; inhibition, % (test concentration not listed); Q9QR71; in the data active = inhibition mostly above about 10%, no sharp cut-off; inactive = mostly below about 6.7%;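 also: stock transfer was 7.5 nL into about 10 µL; 0% = median of vehicle wells and 100% = median of positive control wells; one replicate is shown; the record names a cut of 25% in any replicate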
Vif A3G = HIV-1 Vif–A3G interaction blockers – biochemical, TR-FRET, GST-Vif 1-94, biotin-A3G peptide, dose response retest, primary screen (AID 1117319). actives 0.57% (n = 260,000). TR-FRET GST-Vif / biotin-A3G peptide binding; higher % means a stronger effect; test concentration not given here; strong numbers were not always called active. inhibition, %, or IC50 in µM where a hit was titrated;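 active = above the screen mean plus three standard deviations and confirmed in dose response; inconclusive = results disagree or hit not tested in dose response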;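 also: Vif residues 1-94 fused to GST binding biotinylated APOBEC3G peptide 110-148; 0% = full assay without inhibitor and 100% = GST in place of GST-Vif; retest series ran down from 100 µM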
E coli growth = E. coli growth inhibition; Escherichia coli growth, OD600, 23 h; hits give low values; OD600 absorbance (test concentration not listed); actives 0.21% (n = 330,000); AID 1053175;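 active = OD600 absorbance below the run mean of sample wells minus 3.6 SD, in any replicate, cut at about 0.56 in these data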;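 also: stock transfer was 300 nL into about 60 µL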
A1 inh = inhibitors of the anti-apoptotic protein A1, read as caspase activation; MEF A1-2A-BIM cells, Caspase-Glo 3/7 luminescence, 3 h; percent of clofoctol response, vehicle zero; caspase activation, % (no concentration beside the values); actives 0.066% (n = 330,000);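 active = over half of replicate activation scores above 10%, or exactly half above 10 with the replicate mean above 10; inconclusive = replicate mean below 10 yet half the replicates above 10; inactive = over half of replicates below 10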;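 also: wells of about 30 µL received 50 nL stock; many hits fall short of the cut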
HNF4A DNA FP = change in binding of human HNF4 alpha to DNA | actives 0.3% (n = 360,000) | HNF4a-FITC DNA binding, fluorescence polarization, 1 h | P41235 | AID 1224865 | activity change, % at 10 µM; in the data active = activity change above about 30%, passing the limit was not always enough;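 also: controls were the assay level and a saturating level of protein; the project sought stronger binding though the title names inhibitors; some compounds called inactive have numbers as strong as hits; positive values seem to mean higher polarization but the record does not say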
Target sequence (P41235 whole entry, looked up): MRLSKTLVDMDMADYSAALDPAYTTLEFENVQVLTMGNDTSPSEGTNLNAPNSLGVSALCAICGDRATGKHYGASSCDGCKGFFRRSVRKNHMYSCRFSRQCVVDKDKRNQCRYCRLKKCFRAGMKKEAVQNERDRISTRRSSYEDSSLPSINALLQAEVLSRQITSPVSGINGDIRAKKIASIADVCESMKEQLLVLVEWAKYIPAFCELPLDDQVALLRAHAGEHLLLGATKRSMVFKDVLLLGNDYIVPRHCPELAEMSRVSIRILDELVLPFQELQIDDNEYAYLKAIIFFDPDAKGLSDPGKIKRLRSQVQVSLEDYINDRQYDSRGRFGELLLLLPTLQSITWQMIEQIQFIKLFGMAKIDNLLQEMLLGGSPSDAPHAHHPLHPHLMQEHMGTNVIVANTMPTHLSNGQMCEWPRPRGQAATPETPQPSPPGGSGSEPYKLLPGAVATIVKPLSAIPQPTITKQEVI
UCH37 inh = human UCH37 deubiquitinating enzyme inhibition | Q9Y5K5 | AID 588478 | actives 0.33% (n = 330,000) | inhibition, % (test concentration not listed) | purified proteasome/UCH37, Ub-AMC cleavage fluorescence;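 active = mean of two replicates above 20%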;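 also: 0% = compound-free wells with enzyme and 100% = wells lacking proteasome; stock transfer was 100 nL into about 20 µL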
Target sequence (Q9Y5K5 whole entry, looked up): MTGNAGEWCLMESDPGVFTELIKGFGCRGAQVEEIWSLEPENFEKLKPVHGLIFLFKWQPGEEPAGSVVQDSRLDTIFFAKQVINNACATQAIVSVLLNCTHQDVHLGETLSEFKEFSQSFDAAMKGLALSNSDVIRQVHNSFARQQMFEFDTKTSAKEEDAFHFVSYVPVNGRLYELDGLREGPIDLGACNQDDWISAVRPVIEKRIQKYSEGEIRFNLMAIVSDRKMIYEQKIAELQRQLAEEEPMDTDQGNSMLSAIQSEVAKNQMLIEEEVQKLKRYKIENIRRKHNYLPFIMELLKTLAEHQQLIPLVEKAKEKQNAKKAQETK
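assay system = human UCH37 enzyme supplied as purified proteasome complex | amount = proteasome at 0.15 nM in the dispensed enzyme solution | schedule = 30 min compound-proteasome preincubation then 25 min substrate reaction, room temperature | measured by = fluorescence, ex 355 nm, em 460 nm | benchmarks = no-proteasome wells (full inhibition) and compound-free wells (no inhibition)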
Starred values were filed as active, the others as inactive; ? = inconclusive; / = no result given; & = joins results of further samples.

SMILES	B2AR ag	LANA-H2B inh	Vif A3G	E coli growth	A1 inh	HNF4A DNA FP	UCH37 inh
COC(=O)CCCC1=CC2=C(c3ccccc3)C(=O)C(C)(OC(=O)C3CCCC3)C(=O)C2=CN1Cc1ccc(OC)cc1 (stereo unspecified)	-1	-6.5	/	0.71	1.4	-0.7	0.1
N#Cc1c(Nc2ccccc2C(F)(F)F)s[nH]c1=O	5	-1.9	-3%	0.69	-1.1	-0.4	3.5
CC(C)C(c1nnnn1CCc1ccccc1)N1CCC(C(N)=O)CC1 (stereo unspecified)	5	-5.9	7%	0.68	0.4	-0.4	1.7
Cc1c[n+]([O-])ccc1[N+](=O)[O-]	-1	/	-8%	0.57	/	-1.3	4.4
FC(F)(F)c1cccc(NC(=S)Nc2ccc(Cl)c(Cl)c2)c1	14	8.7	5%	0.4*	0.2	4.6	3.2
CCNS(=O)(=O)c1ccc(NC(=O)Nc2cccc(C(F)(F)F)c2)cc1	9	9.9	-5%	0.51*	?	1.5	5.8
CCOc1ccccc1C(=O)Nc1ccc2nc(N3CCN(c4ncccn4)CC3)cc(C)c2c1	/	-4.7	/	0.74	0.4	/	-68
O=C(NNS(=O)(=O)c1ccc(F)cc1)C1CCN(S(=O)(=O)c2ccccc2)CC1	-2	-2.3	-2%	0.64	0.0	0.7	-2.1
CC1CCCN(c2ccc([N+](=O)[O-])cc2C(=O)c2ccccc2)C1 (stereo unspecified)	42*	2.0	5%	0.7	1.3	-4.4	2.1
COc1ccc(OC)c(CN2CCSCC2)c1	-5	-3.4	-6%	0.62	-0.2	2.3	3.0
Cc1ccc([C@H]2C(C#N)=C(N)Oc3cc(C)oc(=O)c32)o1	1	1.7	2%	0.7	-0.1	0.4	1.5
CCCn1nc(C(=O)NNC(=O)CCOc2ccccc2OCC)c2ccccc2c1=O	-5	0.4	6%	0.67	-0.7	3.6	1.9
COC(=O)C1=C(N)Oc2cc(C)n(Cc3cccnc3)c(=O)c2C1c1ccccc1OC (stereo unspecified)	5	4.2	3%	0.74	-0.3	0.1	-0.1
O=C(CCc1c[nH]c2ccccc12)N[C@@H](Cc1c[nH]c2ccc(O)cc12)C(=O)O	-13	-2.8	5%	0.68	-1.0	1.8	1.1
Cn1c(Cn2c(=O)sc3ccccc32)nnc1SCC(=O)NCc1ccccc1	-7	2.7	11%	0.73	-0.5	8.5	1.8
Cc1nn(-c2ccccc2)c(C)c1C(=O)OC(C)C(=O)NC1CCCCC1 (stereo unspecified)	-16	3.4	-2%	0.73	-1.6	0.5	1.2
Cc1ccc(-n2ncc3c(=O)n(Cc4ccccn4)cnc32)cc1C	-3	1.5	-15%	0.73	-1.4	-0.1	3.5
COc1ccc(CC(=O)NNC(=O)CCc2ccccc2)cc1	-1	-9.4	9%	0.68	0.1	4.1	-0.3
COC(=O)C1C(=O)C2=C(CC1C)NC(=O)CC2c1ccc(O)c(OC)c1 (stereo unspecified)	8	1.2	18%	0.68	0.1	2.7	0.7
CN(C)c1ccc(NC(=S)N2CCN(c3ncc(C(F)(F)F)cc3Cl)CC2)cc1	-10	1.3	5%	0.73	-0.2	0.7	3.0
NC(=O)COC(=O)CCSc1ccc(Cl)cc1	13	-2.0	/	0.67	-1.1	-0.1	4.3
CCSc1nc(N)c2c(C)c(C)sc2n1	1	-5.6	30%	0.73	0.8	6.3	2.6
CC(C)(C)Nc1nc(NC(C)(C)C)nc(-n2ccnc2)n1	-5	5.2	-2%	0.73	-0.5	-1.4	6.1
Cc1cccc(OCCCC(=O)Nc2ccc(N(C)C)cc2)c1	2	-1.8	/	0.63	-0.3	6.9	2.6
COC(=O)C[C@H]1c2cc(F)ccc2S(=O)(=O)N1C(C)C	6	-0.6	/	/	0.4	0.6	3.7

Continued; the last 4 above are carried over.
SMILES	B2AR ag	LANA-H2B inh	Vif A3G	E coli growth	A1 inh	HNF4A DNA FP	UCH37 inh
CCSc1nc(N)c2c(C)c(C)sc2n1	1	-5.6	30%	0.73	0.8	6.3	2.6
CC(C)(C)Nc1nc(NC(C)(C)C)nc(-n2ccnc2)n1	-5	5.2	-2%	0.73	-0.5	-1.4	6.1
Cc1cccc(OCCCC(=O)Nc2ccc(N(C)C)cc2)c1	2	-1.8	/	0.63	-0.3	6.9	2.6
COC(=O)C[C@H]1c2cc(F)ccc2S(=O)(=O)N1C(C)C	6	-0.6	/	/	0.4	0.6	3.7
O=C(CN1C(=O)NC2(CCc3ccccc32)C1=O)Nc1c(Cl)cccc1Cl (stereo unspecified)	4	-1.1	/	0.7	0.0	-1.8	2.8
Cc1cc(C(=O)NNc2ccc(C(C)C)cc2)n(C(C)(C)C)n1	-5	-0.2	4%	0.63	-0.3	7.3	1.4
S=c1[nH]nc(-c2ccc(Cl)cc2)n1Cc1ccccc1	1	-6.0	1%	0.69	0.4	-0.4	3.2
COc1cc(NC(=S)N2CCN(S(=O)(=O)c3ccc(F)cc3)CC2)cc(OC)c1	6	-1.1	/	0.68	0.2	3.6	0.7
CCCCC(C(=O)N/N=C/c1ccccn1)C(=O)N/N=C/c1ccccn1	-2	1.4	-3%	/	-0.2	3.5	/
Cc1cc(C)nc(N2CCC(C(=O)O)CC2)n1	9	-0.5	>100µM*	0.69	0.8	-0.1	-7.3
COc1ccc(S(=O)(=O)NCC(=O)N(CC(=O)NCc2ccco2)Cc2ccccc2)cc1	-8	-1.7	/	0.71	0.2	1.5	-1.1
O=C(COc1ccccc1)c1cn(CC(=O)N2CCOCC2)c2ccccc12	-19	-3.1	?	0.68	-0.1	7.6	0.0
COC(=O)C(Cc1ccccc1)NC(=O)CSc1nc(N)cc(=O)[nH]1 (stereo unspecified)	-1	-2.2	2%	0.79	1.3	0.1	2.7
COc1ccc(N(CC(=O)Nc2cccnc2)S(=O)(=O)c2ccc(C)cc2)cc1Cl	-13	1.2	/	0.68	0.6	1.9	3.6
O=P(O)(CCc1ccncc1)CN1CCCCC1	0	-3.7	4%	0.62	0.2	2.3	1.3
CCSc1nnc(NC(=O)NC(CC)(C(F)(F)F)C(F)(F)F)s1	10	5.4	0%&-2%	0.62	-0.4	0.6	-0.8
COc1cccc(-n2c(N)c(-c3nc4ccccc4[nH]3)sc2=S)c1	5	/	-5%	0.7	0.3	5.0	5.1
Cc1cc(Br)c2c(c1)C1(OCCO1)C(=O)N2	-2	2.2	/	/	3.1	1.2	/
CCN1CCN(C(=O)c2ccc3c(Cl)c4c(nc3c2)CCCC4)CC1	-10	-0.2	/	0.66	2.2	6.7	4.1
Cc1c(C(=O)Nc2ccccc2)cn2c(nc3ccccc32)c1C#N	-3	5.3	/	0.7	0.1	-2.6	-70
Cc1ccc(S(=O)(=O)/N=C2/C=C(C3C(=O)CC(C)(C)CC3=O)C(=O)c3ccccc32)cc1	8	0.2	?	/	0.6	7.7	/
CCOC(=O)C1(Cc2ccc(OC)cc2)CCN(C(=O)C2=CCCC2)CC1	-6	11	/	0.61	0.7	-0.6	-1.3
[O-][n+]1onc2c3ccnnc3ccc21	6	-3.1	0%	0.73	-2.6	-4.1	4.5
Cc1ccccc1CSCCNC(=O)CN(c1ccc2c(c1)OCO2)S(C)(=O)=O	14	-3.7	-3%	0.68	-0.8	0.2	3.1
Cc1nn(-c2ccccc2)cc1/C=N/NC(=O)c1cccs1	-4	-3.1	/	/	-1.3	1.6	/
C#CCN1C(=O)C(O)(CC(=O)c2ccc(OC)c(OC)c2)c2ccccc21 (stereo unspecified)	3	-10	9%	0.72	0.1	-3.3	-0.3
COc1ccc(-n2nc3c(c2NC(=O)C2CC2)CS(=O)C3)cc1 (stereo unspecified)	1	-0.7	24%	0.74	0.5	1.6	0.3
O=C(CNc1ccccc1Cl)Nc1cc(S(=O)(=O)N2CCOCC2)ccc1Cl	-1	1.2	-5%	0.65	-1.0	0.9	2.5
CCC(=O)Nc1ccc(NC(=O)c2c(C)nc3ccccn23)cc1	-9	-3.7	3%	0.67	1.1	-0.3	6.4
Going on with the list.
SMILES	B2AR ag	LANA-H2B inh	Vif A3G	E coli growth	A1 inh	HNF4A DNA FP	UCH37 inh
COn1c2c(c3c4no[n+]([O-])c4ccc31)CCCC2	-5	4.1	14%	0.63	1.5	1.4	4.6
COc1ccc(C2NC(=O)NC(O)(C(F)(F)F)C2C(=O)c2ccccc2)cc1OC (stereo unspecified)	6	2.0	-4%	0.69	0.4	-2.6	2.0
O=C(CSc1nc2ccccc2c(=O)n1C1CC1)NCc1ccccc1	-7	-1.0	-5%	0.69	0.6	5.1	6.1
COc1ccc(NS(=O)(=O)c2cc(C)ccc2C)cc1	-6	-2.6	-4%	0.69	0.1	-1.6	0.3
CNC(=O)NC(=O)C(OC(=O)c1cccc(S(=O)(=O)N2CCCCC2)c1)c1ccccc1 (stereo unspecified)	-3	-0.6	11%	/	0.8	-0.8	/
C[C@H](NC(=O)c1ccccc1Cl)C(=O)OCc1cn2cc(Cl)ccc2n1	1	15*	/	0.7	0.0	0.2	-0.3
O=C(COC(=O)c1ccc([N+](=O)[O-])o1)NCc1ccc2c(c1)OCO2	-4	0.7	/	0.64	-0.7	-5.6	20
COc1ccccc1CNC(=O)CN1C(=O)NC2(CCOc3ccccc32)C1=O (stereo unspecified)	0	-3.9	/	0.67	0.3	0.1	0.7
COc1ccc(S(=O)(=O)N2CCCC(C(=O)N3CCN(c4ccccc4)CC3)C2)cc1Cl (stereo unspecified)	6	-6.5	/	0.72	0.1	1.0	-0.5
O=C(COC(=O)CNC(=O)c1ccccc1)NCCNC(=O)COC(=O)CNC(=O)c1ccccc1	1	4.9	/	0.65	0.3	-2.5	3.7
COc1ccccc1Nc1c2c(nc3ccc(N)cc13)CCCC2	0	0.1	?	0.68	-0.6	9.7	2.9
COC(=O)c1sccc1NC(=O)c1ccoc1C	-3	-4.6	1%	0.71	0.4	-0.2	-0.5
CSc1oc(-c2ccc(F)cc2)nc1S(=O)(=O)c1ccccc1	-3	2.3	-7%	0.67	1.0	-7.8	3.7
Cc1c(NC(=O)c2ccc(C(C)(C)C)cc2)cccc1[N+](=O)[O-]	6	-1.1	/	/	-0.3	-0.3	0.2
Cc1ccc(C)c(NC(=S)/C(=C(\[O-])c2ccc(Cl)s2)[n+]2ccccc2)c1	-2	2.6	/	0.69	0.2	-0.1	7.3
CS(=O)(=O)N1CCc2cc(C(=O)Nc3ccc(COCC(F)(F)F)cc3)ccc21	-2	0.6	/	0.75	-0.1	-5.8	2.9
Cc1ccc(C(=O)Nc2cnc3ccccn3c2=O)cc1	-16	/	5%	0.74	/	3.3	-2.6
CCOC(=O)c1c(NC(=O)/C=C/c2ccc3c(c2)OCO3)sc(C)c1CC	4	-1.2	-6%	/	-0.5	-1.2	/
CC(Oc1ccccc1)C(=O)Nc1cccc(F)c1 (stereo unspecified)	4	0.9	4%	0.62	-0.5	3.5	0.6
CCc1c(C2(O)CCCCC2)[nH]c2c(C(=O)OC)cc(Cl)cc12	13	1.1	/	/	-0.3	3.0	-11
O=[N+]([O-])c1cccc(S(=O)(=O)N2CCN(S(=O)(=O)N3CCCCCC3)CC2)c1	3	-6.2	-5%	0.68	0.0	1.1	0.5
Cc1ccccc1C(OCCN(C)C)C1CCCCC1 (stereo unspecified)	12	1.9	-7%	0.69	0.9	-1.3	2.2
COc1ccc(-n2cnc(=S)[nH]c2=S)cc1	-2	/	-4%	0.67	/	5.1	1.8
CC(C)Oc1ccc(S(=O)(=O)N2CCOCC2)cc1NC(=O)C1COc2ccccc2O1 (stereo unspecified)	15	/	-7%	0.68	/	0.9	0.6
Cc1cc(NC(=O)C2CCN(C(=O)c3ccco3)CC2)ccc1Br	3	0.4	-3%	0.61	0.2	-1.6	1.4
